Menin MLL FP FL = inhibitors of human menin-MLL interaction, wild-type MLL peptide; Fluorescence polarization, fluorescein-MLL peptide displacement from menin; FP activity change, % at 61.4 µM; 290,000 tested, under 10 active; inconclusive = falling polarisation curve, or a change in total fluorescence; inactive = total fluorescence flat and polarisation flat or rising; no compound was filed as active; the % refers to the polarisation; negative = inhibition;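 note: % of control where 0% means no effect; inhibitors lower the polarisation; unlabelled MLL peptide was the positive control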
Active calls of the source: *; ? = inconclusive; & = joins results of further samples; [ ] = dose if it differs, or a comment.

SMILES | Menin MLL FP FL
CCC(C)C(=O)OC1CC(O)C=C2C=CC(C)C(CCC(O)CC(O)CC(=O)O)C21 (stereo not given) | -2.0
CCC1=C2CC[C@H]3C(=O)N(c4ccccc4)C(=O)[C@H]3[C@H]2[C@@]2(Cc3ccccc3)C(=NCC3CC3)OC(=O)N2C1=O | 0.2
Cc1ccc(F)c(NC(=S)Nc2cccc3ccccc23)c1 | -11
COc1oc(=O)c2cc(N)ccc2c1Cl | 9.8
CC1=C2C(O)C(=O)OC3CC4C(C)(C)C(=O)C=C[C@]4(C)C(CC1)[C@@]23C (stereo not given in full) | -0.1
CCCC[C@@H]1C[C@H]1C(NC(=O)c1cccs1)c1ccc(Cl)cc1 (stereo not given in full) | -2.7
O=C(Cc1cccs1)Nc1nnc(Cc2ccc(F)cc2)s1 | 1.9
O=C(OCCN1C(=O)c2cccc3c(N4CCOCC4)ccc(c23)C1=O)c1cc(Cl)cc(Cl)c1 | ?
CCCCC1=CC2=C(c3ccco3)C(=O)C(C)(OC(=O)c3cccs3)C(=O)C2=CO1 (stereo not given) | 16
CN(C)S(=O)(=O)c1cc(NC(=O)c2cc(=O)[nH]c3ccccc23)ccc1Cl | 0.2
Nc1ncnc2c1ncn2[C@@H]1O[C@H](CO)[C@H](O)[C@H]1O | 3.3
O=C(OCCC1Oc2cccnc2NC1=O)c1ccc([N+](=O)[O-])cc1 (stereo not given) | -2.0
O=S(=O)(O)c1cc(N=C=S)ccc1/C=C/c1ccc(N=C=S)cc1S(=O)(=O)O | 2.6
N#Cc1ccc(CS(=O)(=O)c2nnnn2-c2ccccc2)cc1 | 2.7
CNC1C(O)C(OC2C(N)CC(N)C(OC3OC(CN)=CCC3N)C2O)OCC1(C)O (stereo not given) | -0.5
CN1CCN(c2nc(-c3ccc4c(c3)OCO4)nc3ccccc23)CC1 | 1.0
O=C(c1cnccn1)N1CCC2(CCN(Cc3nccs3)CC2)CC1 | 2.7
O=C1C2=C(C(=O)c3ccccc31)C1O[C@](CCCCN3C(=O)c4ccccc4C3=O)(Cc3ccccc31)O2 | 12[11.7 µM]
CCCCCC/C=C1\CC(C(=O)OCC)Oc2ccccc21 (stereo not given) (tested in a mixture with another compound) | -0.8[94.6 µM]
OCc1cccnc1 | -7.3&7.4
CN(Cc1ccco1)c1cc(-c2cccnc2)ncn1 | -9.0
COc1ccc(NC(=O)N2CCC3(CC2)CCN(C(=O)c2ccncc2)CC3)cc1 | -2.5
Cc1nc2cnc(N(C)C)nc2n(C[C@H]2CCCO2)c1=O | -0.1
COc1ccc(NC(=O)N2CC[C@@]3(CCCN(C(=O)c4cccc(F)c4)C3)C2)cc1 | 3.6

Gathered by group, those above containing a halogen
SMILES | Menin MLL FP FL
Cc1ccc(F)c(NC(=S)Nc2cccc3ccccc23)c1 | -11
COc1oc(=O)c2cc(N)ccc2c1Cl | 9.8
CCCC[C@@H]1C[C@H]1C(NC(=O)c1cccs1)c1ccc(Cl)cc1 (stereo not given in full) | -2.7
O=C(Cc1cccs1)Nc1nnc(Cc2ccc(F)cc2)s1 | 1.9
O=C(OCCN1C(=O)c2cccc3c(N4CCOCC4)ccc(c23)C1=O)c1cc(Cl)cc(Cl)c1 | ?
CN(C)S(=O)(=O)c1cc(NC(=O)c2cc(=O)[nH]c3ccccc23)ccc1Cl | 0.2
COc1ccc(NC(=O)N2CC[C@@]3(CCCN(C(=O)c4cccc(F)c4)C3)C2)cc1 | 3.6

New compounds follow.
SMILES | Menin MLL FP FL
O=C(N/N=C1/C[C@@H](O)[C@@H](O)[C@@H]2[C@@H]3C(=O)N(C[C@@H]4CCCO4)C(=O)[C@H]3CC[C@@H]12)OCc1ccccc1 | -0.6[11.7 µM]
CS(=O)(=O)N1CCC2(CC1)CN(c1ccccc1)C2 | 1.7
O=c1onc2cnc3ccccc3n12 | -0.6&-10.0
C[C@@H](c1ccccc1)N1C(=O)[C@H]2[C@H]3[C@H](O)[C@H](O)C/C(=N/NC(=O)OCc4ccccc4)[C@@H]3CC[C@@H]2C1=O | 0.5[11.7 µM]
COc1cccc([C@@H]2Oc3ccc(OC)cc3C(=O)[C@H]2OC(=O)N[C@H]2CCCc3ccccc32)c1 | -1.8
COCCn1c(-c2ccc(Cl)cc2)nc2c(c(=O)c3ccccc3n2C)c1=O | 1.4
CN1CCN(c2ncc3nc(-c4cccs4)c(=O)n(Cc4cccs4)c3n2)CC1 | ?
Nc1c(S(=O)(=O)O)cc(Nc2cccc3ccccc23)c2c1C(=O)c1ccccc1C2=O | -8.5
Brc1ccc(/C=N/Nc2nncc(-c3ccccc3)n2)o1 | -4.6
COc1ccc(C(=O)n2ccc(C)n2)cc1Br | -1.4
COC(=O)c1ccc(CSCc2ccc(C#N)cc2)cc1 | 0.3
OCC1O[C@H](O)C(Cl)C(O)C1O (stereo not given in full) | 4.6
C=C(C)C(O)/C=C/c1ccc(C(F)(F)F)cc1 (stereo not given) | -5.3&-3.0
COC1=CC(=O)C(O)=C/C1=C\C=C\c1ccccc1 | -0.9
CCCCCCCCOc1ccc(C(=O)c2ccccc2)c(O)c1 | 3.2
Cn1cc(C=C2C(=O)Nc3cccnc32)c2ccccc21 | ?
C[C@@H](c1ncncc1F)[C@](O)(Cn1cncn1)c1ccc(F)cc1F | -4.6
O=C(Sc1cccc2cccnc12)c1ccccc1Br | 0.6
COc1ccc(N2CCN(C(=O)c3ccc4c(c3)NC(=O)C(CSCc3ccc(C)cc3)N4)CC2)cc1 (stereo not given) | 13
O=C1CCCC=C1[C@@H](O)CCOC(c1ccccc1)(c1ccccc1)c1ccccc1 | -2.0
COc1ccc(NC(=O)N2CCc3nc(-c4ccc(OC)cc4C)c4c(c3C2)CO[C@@H](c2ccccc2)C4)cc1 | -2.4[11.7 µM]
CCCCCOc1ccc(/C=c2\sc3ncnn3c2=O)cc1 | 5.8
CC(C)=CCC/C(C)=C/CO/N=C1/C[C@@H](O)[C@@H](O)[C@@H]2[C@@H]3C(=O)N(Cc4ccc5c(c4)OCO5)C(=O)[C@H]3CC[C@@H]12 | 2.8[11.7 µM]
CCC1SC2=NCN(c3ccccc3)CN2C1=O (stereo not given) | -0.1
Clc1ccc(Cn2c(CN3CCCC3)nc3ccccc32)cc1 | -1.8
CC(C)(Oc1ccc([C@@H]2CC2(Cl)Cl)cc1)C(=O)O | -5.6[24.8 µM]
COc1ccccc1Nc1nc(-c2sc(NC(=O)c3ccc([N+](=O)[O-])cc3)nc2C)cs1 | 2.9
CO/N=C(\C(=O)N[C@@H]1C(=O)N2C(C(=O)O)=C(COC(C)=O)CS[C@@H]12)c1csc(N)n1 | 13[24.8 µM]
CCC[C@@H]1C[C@@]1(CCC)C(NP(=O)(c1ccccc1)c1ccccc1)c1ccc(Cl)cc1 (stereo not given in full) | 14
O=c1cnc2cnc(N3CCNCC3)nc2n1Cc1cccs1 | 1.1
COc1ccc(Oc2ncc3nc(C)c(=O)n(Cc4cccc(OC)c4)c3n2)cc1 | 7.0
Cc1ccc2sc(NNC(=O)c3cc(-c4cccs4)nc4ccccc34)nc2c1C | -1.4
COc1ccc(NC(=O)N2CC3(CCN(C(=O)c4ccc(OC)cc4)CC3)C2)cc1 | 0.0
Cc1ccc(C(=O)Oc2oc(-c3ccco3)nc2C=Nc2ccccc2)cc1 | 1.0
CCn1c(C)nc2cc(C(=O)N=Nc3c(O)[nH]c4c(C)cc(C)cc34)ccc21 | 0.4
CCN1C(=O)N[C@@H](c2ccccc2)C1=O | -2.2[24.8 µM]
CCOC(=O)OCC1OC(C#CC(C)(C)C)C=CC1OC(=O)OCC (stereo not given) | -0.3[11.7 µM]
O=c1c(-c2cccc(Cl)c2)nc2cncnc2n1Cc1ccccc1 | 4.8
Cc1ccccc1-c1cc(NCc2ccccc2)ncn1 | -2.0
COc1ccc(O[C@H]2C=C[C@@H](c3ccccc3)O[C@H]2COC(=O)CC/C(C)=N\O[C@@H](C)CN2CCCc3nc(C)c(C)cc32)cc1 | -1.6[11.7 µM]
CC[C@@H]1C(c2cccc(C)c2)=NN(c2ccc(Br)cc2)[C@H]1C(=O)N1CCOC1=O | ?
CC1(OC(=O)c2ccc(Cl)nc2)C(=O)C=C2C=C(c3ccc(C#N)cc3)OC=C2C1=O (stereo not given) | 6.0&0.8
CCCC(=O)NC(Nc1ccccc1F)C(Cl)(Cl)Cl (stereo not given) | 2.5
COc1cccc(OC)c1C1=Nn2c(nnc2-c2ccccc2C)SC1 | 0.3
Cc1ccnc(SCCn2c(N3CCN(C)CC3)nc3c2c(=O)[nH]c(=O)n3C)n1 | 4.3
COc1ccc(CNc2ccnc(-c3c(C)noc3C)n2)c(OC)c1 | -4.4
CCCN1CCC(NC23CC4CC(CC(C4)C2)C3)CC1 | -9.1
COC(=O)[C@@]1(Cc2ccccc2)[C@H]2c3cc(C(=O)N(C)C)n(Cc4ccccc4)c3C[C@H]2CN1C(=O)c1ccccc1 | 2.7
CC(C)C1NC(=O)[C@H](CCCCN)NC(=O)[C@@H](Cc2c[nH]c3ccccc23)NC(=O)[C@H](Cc2ccc(O)cc2)NC(=O)[C@H](C)N(C)C(=O)[C@H](Cc2ccccc2)NC1=O (stereo not given in full) | 4.2
O=S(=O)(CCC(F)=C(F)F)c1nnnn1C1CCCCC1 | -0.4
CCOC(=O)C1(O)Oc2cc(OC)cc(OC)c2C(=O)C1c1ccccc1 (stereo not given) | -1.9
O=C(Nc1ccccc1)N1CC2(CCN(S(=O)(=O)c3ccccc3)CC2)C1 | -1.3
N[C@H](C(=O)O)[C@H]1C[C@@H]1C(=O)O | 2.1
Cc1ccc(S(=O)(=O)N2CCSC2=Nc2ccccc2)cc1 | -2.4
CC(C)CC1OCCC=CC1C (stereo not given) | -3.4[11.7 µM]
COc1ncc2nc(-c3cccs3)c(=O)n(Cc3ccc(F)cc3)c2n1 | 4.2
c1ccc(C(c2ccccc2)N2CCCC3(CCNCC3)C2)cc1 | 0.2
O=C(O)c1cc(-c2ccc(O)cc2)nc2ccccc12 | 1.3
C=C(NC(=O)C(=C)NC(=O)c1csc(C2=N[C@@H]3c4csc(n4)[C@@H]4NC(=O)c5csc(n5)[C@@H]([C@](C)(O)[C@H](C)O)NC(=O)[C@@H]5CSC(=N5)/C(=C/C)NC(=O)[C@@H]([C@H](C)O)NC(=O)c5csc(n5)[C@]3(CC2)NC(=O)[C@@H](C)NC(=O)C(=C)NC(=O)[C@@H](C)NC(=O)[C@@H]([C@@H](C)CC)N[C@H]2C=Cc3c([C@H](C)O)cc(nc3[C@@H]2O)C(=O)O[C@H]4C)n1)C(N)=O | 1.1[24.8 µM]
Nc1[nH]n2c(=O)cc(-c3ccccc3)nc2c1N=Nc1ccc2c(c1)OCO2 | 5.6

4 records picked at random from those above:
SMILES | Menin MLL FP FL
CC(C)CC1OCCC=CC1C (stereo not given) | -3.4[11.7 µM]
Nc1[nH]n2c(=O)cc(-c3ccccc3)nc2c1N=Nc1ccc2c(c1)OCO2 | 5.6
O=C(O)c1cc(-c2ccc(O)cc2)nc2ccccc12 | 1.3
CC(C)C1NC(=O)[C@H](CCCCN)NC(=O)[C@@H](Cc2c[nH]c3ccccc23)NC(=O)[C@H](Cc2ccc(O)cc2)NC(=O)[C@H](C)N(C)C(=O)[C@H](Cc2ccccc2)NC1=O (stereo not given in full) | 4.2

Next section
SMILES | Menin MLL FP FL
O=S(=O)(O)c1cc(I)c(O)c2ncccc12 | -3.6
CC(=O)N[C@H](Cc1c[nH]c2ccccc12)C(N)=O | 4.5
CCOc1ccc(N(CC(=O)NC(C)CC)S(=O)(=O)c2c(C)noc2C)cc1 (stereo not given) | -0.5
c1ccc(COc2ccc(-c3sc(Nc4ccccc4)n[n+]3-c3ccccc3)cc2)cc1 | 0.0
COc1ccccc1CN1CCC2(CC1)CCN(C(=O)c1ccncc1)CC2 | 0.1
C[C@@H]1C(=O)O[C@H]2[C@@H](O)[C@@]34[C@H]5CC(C(C)(C)C)[C@]36[C@@H](OC(=O)[C@@H]6O)O[C@@]4(C(=O)O5)[C@@]12O (stereo not given in full) | 0.7
CC(C)CN1CCC2(CC1)CCN(C(=O)c1cnccn1)CC2 | -0.2
COc1ccc(CNc2nc(NCc3ccc(OC)cc3)c3ncn(C4CCCCC4)c3n2)cc1 | 0.4
N=C1C(c2nc3ccccc3[nH]2)=C(O)CN1NC(=O)COc1cccc(F)c1 | 5.5
C[C@@H](C(=O)Cc1ccc2ccccc2c1)[C@@H]1C[C@@]1(C)[C@@H](NP(=O)(c1ccccc1)c1ccccc1)c1ccccc1 | -2.3
CC1(C)[C@@H](OC(=O)CCC(=O)O)CC[C@@]2(C)[C@H]1CC[C@@]1(C)[C@H]2C(=O)C=C2[C@H]3C[C@](C)(C(=O)O)CC[C@]3(C)CC[C@@]21C | 1.4[24.8 µM]
OCc1ccccc1O | 0.4
O=C(Nc1ccc(F)cc1)C1=CC(=O)N2CCN=C2S1 | 1.7
CCOC(=O)CCN1C(=O)[C@H]2[C@H]3[C@H](O)[C@H](O)C/C(=N/OCC(C)C)[C@H]3CC[C@@H]2C1=O | -0.4[11.7 µM]
Cc1cc(C)c2[nH]c(=O)c(CN(Cc3ccco3)C(=O)c3cccs3)cc2c1 | 8.6
O=C(N[C@H]1CCCc2ccccc21)O[C@@H]1C(=O)c2cc(Br)ccc2O[C@H]1c1ccc2c(c1)OCO2 | 24
CC(C)CCOc1ccc(N)cc1 | -2.1
COc1ccccc1CNc1ncnc2ccc(-c3ccccc3CN(C)C)cc12 | 19
O=C(c1csnn1)N1CCC2(CCCN(c3ccc(-c4ccccc4)cc3)C2)CC1 | 22
O=C(/C=C/c1ccc(O)c(O)c1)O[C@@H]1C[C@@](O)(C(=O)O)C[C@H](O)[C@@H]1O | 0.8
CC(=O)OCC(OC(C)=O)C(OC(C)=O)C(OC(C)=O)C(OC(C)=O)C(COC(C)=O)OC(C)=O (stereo not given) | 4.2
C#CCn1c(=O)c2c(nc(/C=C/c3cccc(OC)c3)n2C)n(CCCO)c1=O | 3.7
CC(C)(C)C1CC=C2C(C#N)=C(N)C(C#N)(C#N)C(c3cccs3)C2C1 (stereo not given) | ?

Not all compounds are listed; count on the stated rates, not on these rows.
